eIF4H inh – inhibitors of RNA binding by human eIF4H | inhibition, % at 35 µM | Q15056 | hit rate 0.94% among 290,000 | AID 2012 | eIF4H fluorescence polarization binding assay;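 active means 50% or more with normal probe brightness, or confirmed in later tests; inconclusive means above 50% with abnormal brightness, or retests that disagree; inactive means below 50% or failed in later tests; about a fifth of its hits are not listed in these tables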;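 further: calls also rest on retests at 20 µM and on dose response follow-up; 0% = protein and probe with vehicle and 100% = probe without protein; strong numbers were not always called active; many hits fall short of the cut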
PABP FP inh – blocks human PABP binding to poly(A) RNA; AID 2014; fluorescence polarization; P11940; hit rate 1% among 290,000; inhibition, % at 35 µM;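 active means 50% or more with normal probe brightness, or confirmed in later tests; inconclusive means above 50% with abnormal brightness, or retests that disagree; inactive means below 50% or failed in later tests; about a fifth of its hits are not listed in these tables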;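 further: calls also rest on retests at 20 µM and on dose response follow-up; controls were probe without protein and protein plus probe with vehicle; some compounds called inactive have numbers as strong as hits; many hits fall short of the cut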
MT1-MMP act inh – inhibitors of human MT1-MMP activation | P50281 | HT1080 RFP-PRO-GFP cells, GFP/RFP ratio fluorescence, overnight; percent of plate control window, DMSO zero | GFP/RFP ratio change, % at 20 µM | hit rate 0.061% among 360,000 | AID 651647;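 active means GFP/RFP ratio change of at least 30% with cell ATP level not reduced by more than half and red fluorescence within 50% of control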; further: strong numbers were not always called active
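Assay system – RFP-PRO-GFP reporter HT1080 cells · Compound dosing – single dose of 20 µM compound, 1% DMSO final · Incubation – overnight compound exposure at 37 °C · Measure – GFP/RFP fluorescence ratio · Benchmarks – DMSO wells and RFP-L50D-GFP cells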
Rce1 inh – yeast Ras-converting enzyme inhibition; yeast membranes, quenched prenylated peptide cleavage fluorescence; calls only; AID 2563; hit rate 0.27% among 290,000; Q03530;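 active means fall in fluorescence gain of 50% or more versus controls, with final raw signal at or below 3038400; inconclusive means same 50% fall but final raw signal above 3038400; inactive means fall in fluorescence gain under 50%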;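 further: plate controls were neutral control wells for no effect and wells lacking membranes for full effect; tested at 10 µM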
Target sequence (Q03530 whole entry, looked up): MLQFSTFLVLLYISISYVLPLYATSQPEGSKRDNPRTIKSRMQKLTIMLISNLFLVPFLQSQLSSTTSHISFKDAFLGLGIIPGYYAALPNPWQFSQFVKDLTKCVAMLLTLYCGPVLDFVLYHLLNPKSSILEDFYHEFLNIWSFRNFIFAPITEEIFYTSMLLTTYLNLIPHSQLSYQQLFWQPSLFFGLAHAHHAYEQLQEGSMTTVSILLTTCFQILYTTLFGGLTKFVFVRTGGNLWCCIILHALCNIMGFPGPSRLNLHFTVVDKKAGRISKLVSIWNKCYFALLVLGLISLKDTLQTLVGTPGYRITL
CSC inhib – blocks cancer stem cells. hit rate 1.1% among 300,000. inhibition, % at 7.5 µM. cancer stem cell-like cells viability, luminescence;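 active means mean at 75% or more and at least half the replicates too; inconclusive means mean and replicates disagree; tested in HMLE shEcad cells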;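 further: 0% = median of negative and 100% = median of positive control wells; the first replicate is given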
Yeast UUG start – alters start codon recognition fidelity in yeast. AID 602363. S. cerevisiae UUG-firefly luciferase reporter, luminescence/redox ratio. hit rate 0.13% among 350,000. activity score, % at 18.7 µM;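 active means replicate mean at a twofold rise or more, about +100% in these data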;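 further: firefly luciferase made from a UUG start codon reports start codon fidelity; reporter light over untreated wells divided by growth signal over untreated wells; some hits fall short of that in this replicate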
Env fusion inh – blocks HIV Env-driven cell-cell fusion | HeLa-JRFL Env/CEM21 cell fusion, luciferase | inhibition, % at 12.3 µM | hit rate 1.1% among 360,000 | AID 651610;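 active means mean replicate inhibition score of at least 50 and every replicate individually at or above 50; inconclusive means only one of the two criteria met; inactive means mean below 50 and not all replicates reaching 50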;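 further: 0% = plate neutral controls and 100% = maraviroc near 300 nM; one replicate is shown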
eIF4H inh retest – second read-out of eIF4H inh, no call of its own (marks repeat the call); inhibition, %; compound at 20 µM; confirmation average;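 mean of two retest wells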
PABP FP inh retest – second read-out of PABP FP inh, no call of its own (marks repeat the call); inhibition, %; compound at 20 µM; confirmation repeats;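 mean of two retest wells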
MT1-MMP act inh RFP – further read-out of MT1-MMP act inh, marked with its call; RFP signal change, %; measured here: RFP expression control read;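 0 = vehicle wells; hits needed this value within 50% of zero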
* hit, by the source's call; i = inactive; ? = inconclusive; · = no result given. These rows are one share of the data, so the mix of outcomes need not match the whole.

SMILES	eIF4H inh	PABP FP inh	MT1-MMP act inh	MT1-MMP act inh RFP	Rce1 inh	CSC inhib	Yeast UUG start	Env fusion inh	others
COc1ccc(C(CCN2CCOCC2)c2c(O)cc(OC)cc2OC)cc1 (configuration not stated)	-2	-7	-2	5	i	-1	-25	-6
C[C@H](NC(=O)c1ncn2c1c(=O)[nH]c1ccccc12)c1ccccc1	·	·	6	7	·	·	-13	11
CSc1nsc(SC)c1C(=O)N1CCN(S(=O)(=O)c2ccc(C)cc2)C1C(C)C (configuration not stated)	-10	-6	-8	-4	i	·	-4	·
C/C(=N\NC(=O)c1cccc(S(=O)(=O)Nc2ccccc2Cl)c1)c1ccc(-n2ccnc2)cc1	-3	8	1	5	i	2	·	-116
COc1ccc(/C=C/C(=O)Nc2ccc(OC)nc2)cc1	-3	-14	9	-1	·	16	-8	-3
OC1(c2ccc(F)cc2)CSC(=Nc2cccnc2)N1Cc1ccco1 (configuration not stated)	2	-9	-1	-3	i	15	·	20
CC(C(=O)NCCN1CCOCC1)(c1ccccc1)c1ccccc1	0	-5	1	0	i	-11	-26	-12
CCn1c(C(=O)O)c(CC(=O)Nc2ccccc2OC)c2ccccc21	3	12	-1	2	i	-4	-12	0
O=C(CC1C(=O)NCCN1Cc1ccoc1)NCCc1ccc(Cl)cc1 (configuration not stated)	9	-2	-2	-4	i	-8	·	23
CN1CCN(C(=S)c2ccc(Cl)cc2)CC1	-10	2	3	4	i	16	-2	-8
CCCCCCCCCC[n+]1cccc2c3ccccc3ccc21	-4	7	-15	-37	i	·	·	59*
COc1cc(/C=C2\C(=N)N3N=CSC3=NC2=O)ccc1OS(=O)(=O)c1ccccc1[N+](=O)[O-]	-9	20	-6	-7	i	0	-13	7
COc1cc(NC(=O)Nc2ccc(Cl)c(Cl)c2)c(C(=O)O)cc1OC	5	10	1	-4	?	11	-15	1
CCOC(=O)CN1C(=O)N[C@@H](c2cccc(C(F)(F)F)c2)C(C(=O)OC)=C1C	·	·	3	5	i	·	4	-14
COc1ccc(C(C)C)cc1-c1cc(C(=O)NCc2cccc(C(F)(F)F)c2)[nH]n1	·	·	1	-5	·	·	-14	18
O=C(Nc1cccc(-c2nc3ncccc3o2)c1)c1sc2cc(Cl)ccc2c1Cl	-16	-25	6	6	i	3	-17	·
O=C(O)c1ccccc1CSc1ncccc1C(=O)O	5	-12	-4	-1	i	-12	·	-5
CC1CCN(CCC(=O)Nc2ccc3c(c2)OCCO3)CC1	11	0	·	·	i	0	·	·
CCN(C(=O)CSc1nc2scc(-c3ccccc3)c2c(=O)n1N)C1CCS(=O)(=O)C1 (configuration not stated)	·	·	-2	-10	·	·	-14	11
Cc1ccc(NC(=O)OCc2cncs2)cc1	-12	-9	0	-1	i	-2	-2	-33

The closing four records of the part before come first, to join the parts:
SMILES	eIF4H inh	PABP FP inh	MT1-MMP act inh	MT1-MMP act inh RFP	Rce1 inh	CSC inhib	Yeast UUG start	Env fusion inh	others
O=C(O)c1ccccc1CSc1ncccc1C(=O)O	5	-12	-4	-1	i	-12	·	-5
CC1CCN(CCC(=O)Nc2ccc3c(c2)OCCO3)CC1	11	0	·	·	i	0	·	·
CCN(C(=O)CSc1nc2scc(-c3ccccc3)c2c(=O)n1N)C1CCS(=O)(=O)C1 (configuration not stated)	·	·	-2	-10	·	·	-14	11
Cc1ccc(NC(=O)OCc2cncs2)cc1	-12	-9	0	-1	i	-2	-2	-33
COc1ccc(OC)c2c(C)c(C)[nH]c12	2	0	1	2	i	7	-6	23
CC(C)OP(=O)(c1ccc(N(C)C)cc1)C(O)c1ccccc1 (configuration not stated)	-4	-6	5	4	i	-9	-7	-86
CCSC1=NCCN1S(=O)(=O)c1ccccc1	-7	5	0	5	i	-5	·	-2
CCOC(=O)C1=CCC(c2ccc(C#N)cc2)N(S(=O)(=O)c2ccc(C)cc2)C1 (configuration not stated)	·	·	0	-3	·	·	-6	-17
CCC1CCCCN1CCCNC(=O)CN1C(=O)CSc2ccc(S(=O)(=O)N3CCOCC3)cc21 (configuration not stated)	1	6	1	5	i	-2	-14	-2
CCOc1ccc(NC(=O)COC(=O)c2cc(C)oc2C)cc1	·	·	3	5	·	17	-21	·
COc1ccc(-c2cn(-c3ccc(OC)cc3)c3[n+]2-c2ccccc2CC3)cc1	-3	2	-15	-26	i	35	·	29
O=C(c1cc(S(=O)(=O)N2CCN(c3ccccc3)CC2)ccc1Cl)N1CCCCCCC1	·	·	-14	-20	i	3	·	23
CCCNC(=O)[C@@H]1CCCN1C(=O)C1CCN(S(=O)(=O)c2ccc(C)cc2)CC1	-6	-7	1	0	i	5	-3	-2
O=C(CSc1nc2ccccc2c(=O)n1Cc1ccc(Cl)cc1)NCc1cccs1	-8	-1	1	-3	i	-7	-11	70*

Structural class: the compounds so far with an aryl thioether with sulfur outside any ring (4)
SMILES	eIF4H inh	PABP FP inh	MT1-MMP act inh	MT1-MMP act inh RFP	Rce1 inh	CSC inhib	Yeast UUG start	Env fusion inh	others
CSc1nsc(SC)c1C(=O)N1CCN(S(=O)(=O)c2ccc(C)cc2)C1C(C)C (configuration not stated)	-10	-6	-8	-4	i	·	-4	·
O=C(O)c1ccccc1CSc1ncccc1C(=O)O	5	-12	-4	-1	i	-12	·	-5
CCN(C(=O)CSc1nc2scc(-c3ccccc3)c2c(=O)n1N)C1CCS(=O)(=O)C1 (configuration not stated)	·	·	-2	-10	·	·	-14	11
O=C(CSc1nc2ccccc2c(=O)n1Cc1ccc(Cl)cc1)NCc1cccs1	-8	-1	1	-3	i	-7	-11	70*

Other compounds:
SMILES	eIF4H inh	PABP FP inh	MT1-MMP act inh	MT1-MMP act inh RFP	Rce1 inh	CSC inhib	Yeast UUG start	Env fusion inh	others
NCCSC1CC(=O)N(Cc2ccc(F)cc2)C1=O (configuration not stated)	0	-4	-4	-2	i	-33	-15	3
O=C(c1noc2c1CCCCC2)N1CCOCC1	-12	-12	0	7	i	7	·	·
CNC(=S)Nc1cc2oc3ccccc3c2cc1OC	9	9	-4	1	i	-16	-27	-4
O=C(O)Cc1c(O)ccc2ccccc12	5	-2	4	9	i	-7	-16	0
CC1CC(C)(C)NC(=S)N1CCC(=O)N1CCc2ccccc21 (configuration not stated)	-17	-2	0	2	i	-16	·	13
Cc1ccc(CNC(=O)CSc2n[nH]c(N)n2)cc1	-6	-6	2	1	i	3	-25	12
Cc1nc(C)c(C(=O)O)s1	-4	-4	-3	-4	i	24	-12	-2
CCOC(=O)N1CCN(C(=O)c2cc3cc(OC)c(OC)cc3[nH]2)CC1	-5	4	5	6	i	14	-15	-9
O=C(NC1CCCCCC1)c1ccc(CS(=O)(=O)Cc2ccc(F)cc2)o1	6	-9	0	-4	i	-6	-12	4
N#CC1=C(N)C(C#N)(C#N)C(c2cccnc2)C2CN(C(=O)OCc3ccccc3)CC=C12 (configuration not stated)	66*	0	-31	4	i	7	-7	·	eIF4H inh retest=105*;PABP FP inh retest=9
CCCCCCN1CC(C(=O)OCC)C(=O)C1=O (configuration not stated)	-4	3	-7	2	i	16	-13	-12
CCCCSc1nnc(CSc2nc3nc(C)cc(C)n3n2)o1	-7	-4	3	6	i	-7	-12	·
COc1ccc([C@H]2CC(=O)C=C(c3ccc(-c4ccccc4)c(F)c3)C2)cc1OC	·	·	0	-6	·	10	-15	20
O=C(NNS(=O)(=O)c1ccc(Br)cc1)c1sccc1-n1cccc1	-5	5	-2	3	·	9	·	2
COC(=O)c1ccc(C(c2c(C)[nH][nH]c2=O)c2c(C)[nH][nH]c2=O)cc1	2	2	1	4	i	-10	-15	5
CCNC(=O)CN(c1ccc(C)cc1)S(=O)(=O)c1ccc(SC)cc1	-11	-6	-9	-5	i	-12	-11	-77
COc1ccccc1CC(=O)NC1CCCc2ccccc21 (configuration not stated)	1	-4	-3	0	i	-4	·	-4
O=C(COc1cccc(C(F)(F)F)c1)Nc1cccnc1	2	10	0	-1	i	-10	-3	·
Cc1cc(C(=O)COc2ccc(C#N)cc2)c(C)n1-c1ccc2c(c1)OCO2	15	6	3	-14	i	-12	-19	35
COc1ccc(C(=O)Nc2ccccc2C)cc1S(=O)(=O)N1CCOCC1	-6	-7	2	3	i	·	-17	-1
CCCc1cc(-c2nc(-c3ccc(Cl)cc3)cs2)ccn1	-2	3	0	-3	i	?	-21	-25
Cc1nc2c(ccc3nc(NC(=O)C(c4ccccc4)c4ccccc4)sc32)s1	4	9	8	-29	i	31	-10	-132
COc1cc(CNCc2cccs2)ccc1OCc1cccs1	-5	5	4	3	i	·	-22	32
O=C(Nc1ccc(S(=O)(=O)NCC2CCCO2)cc1)c1ccc(F)cc1 (configuration not stated)	-2	2	-7	-25	i	-3	-19	-5
CCCS(=O)(=O)N1CCC(C(=O)NC2CCC(C)CC2)CC1 (configuration not stated)	-5	1	-1	0	i	1	-15	·
CC1CCN(C(=S)NC(=O)c2ccco2)CC1	-4	-8	1	3	i	-15	-21	-6
Cc1cc(C(=O)N2CCCC(Nc3ccc(C(C)C)cc3)C2)nn1C (configuration not stated)	-10	3	5	-1	i	-33	-13	3
Cc1nc(CCNC(=O)C2CCC(=O)N(Cc3cccc(F)c3)C2)sc1C (configuration not stated)	-7	3	2	4	i	-15	-4	-12
Cc1ccc2ncnc(Oc3ncccc3[N+](=O)[O-])c2c1	-2	8	-7	2	·	4	-8	-4
Cc1ccc(N2CC(C(=O)N3CCC(C(=O)Nc4cccc(Br)c4)CC3)CC2=O)cc1 (configuration not stated)	-1	-5	6	-4	i	2	6	4
NC(=O)C1CCN(C(=O)CCSCc2ccc(Cl)c(Cl)c2)CC1	6	9	-1	0	i	-22	-19	5
CCCCCCCCn1c(N2CCN(c3cccc(Cl)c3)CC2)nc2c1c(=O)[nH]c(=O)n2C	1	-1	-15	-14	i	-10	-14	-41
C(=N\n1cnnc1)/c1ccc(OCc2ccccc2)cc1	-13	9	12	-2	i	4	0	-30
Cc1oc2ccc(NS(=O)(=O)c3cccc4cccnc34)cc2c1C(=O)OC(C)C	-9	8	-4	-6	i	28	·	19
Cc1ccccc1CC(=O)Nc1ccon1	-4	9	-5	-4	i	1	-4	-51
CCOc1ccc(C(=O)Nc2ccc(S(=O)(=O)N3CCN(C)CC3)cc2)cc1	-8	-2	6	-7	i	-20	-5	-20
O=C(Nc1cccc(Cl)c1)Nn1cnnc1	-10	0	-4	-2	i	-13	-11	2

High-throughput results from PubChem BioAssay.
